# CDC25B-CDK2 inh: primary biochemical HTRF screen for blockers of M-phase inducer phosphatase 2 binding to CDK2/cyclin A; HTRF CDC25B-CDK2/CyclinA binding, anti-His/anti-Flag; stronger effect = higher value; z-score (no concentration beside the values); actives 0.72% (n = 94,000); P30305+P24941;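 also: score is relative to mean and SD of negative controls; strong numbers were not always called active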
# HIV TAR-Tat: TAR RNA-Tat peptide displacers, HIV-1, primary screen, biochemical, FRET, FAM/TAMRA-labeled Tat; z-score (test concentration not listed); HIV-1 TAR RNA, Tat peptide displacement FRET; stronger effect = higher value; actives 0.6% (n = 100,000); AID 1259389, 2018;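 also: score is relative to mean and SD of negative controls; some compounds called inactive have numbers as strong as hits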
# Active calls of the source: *; x = not tested or not shown.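 The calls were made as follows: active = z-score from 3 up in half or more of its runs; inactive = the rest.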
# Preview, 7 compounds:
SMILES,CDC25B-CDK2 inh,HIV TAR-Tat
O=C(Nc1ccccc1Br)C1COc2ccccc2C1 (configuration not stated),x,1
CC1=C(c2ccc(C(C)C)cc2)S(=O)(=O)NC1=NC(C)(C)C,-3.8,-0.77
CC(C)CCn1cnc2c(oc3nc4c(cc32)CCCC4)c1=O,x,0.5
Oc1ccccc1/C=C/c1noc(-c2ccccc2O)n1,-0.45,x
O=c1[nH]nc(Sc2ncc([N+](=O)[O-])s2)n1-c1ccc2c(c1)OCCO2,1.8,x
CN1C(=O)c2ccccc2C(C(=O)NCc2ccco2)C1c1cccs1 (configuration not stated),-0.81,-1.5
CNC(=O)c1c(NC(=O)c2cc(C)ccc2C)sc2c1CCC2,x,-2.5

# Results, repeating the preview:
SMILES,CDC25B-CDK2 inh,HIV TAR-Tat
O=C(Nc1ccccc1Br)C1COc2ccccc2C1 (configuration not stated),x,1
CC1=C(c2ccc(C(C)C)cc2)S(=O)(=O)NC1=NC(C)(C)C,-3.8,-0.77
CC(C)CCn1cnc2c(oc3nc4c(cc32)CCCC4)c1=O,x,0.5
Oc1ccccc1/C=C/c1noc(-c2ccccc2O)n1,-0.45,x
O=c1[nH]nc(Sc2ncc([N+](=O)[O-])s2)n1-c1ccc2c(c1)OCCO2,1.8,x
CN1C(=O)c2ccccc2C(C(=O)NCc2ccco2)C1c1cccs1 (configuration not stated),-0.81,-1.5
CNC(=O)c1c(NC(=O)c2cc(C)ccc2C)sc2c1CCC2,x,-2.5
Cc1ccc(-c2cnc(NCc3cc(Br)ccc3F)n2C)cc1,-2.2,-1.1
Cc1sc2c3ccccc3ccc2[n+]1CCC(=O)O,-3.2,1.9
COc1ccccc1-c1cc(C(F)(F)F)n(-c2nc(C(=O)O)cs2)n1,x,0.66
COc1ccc(S(=O)(=O)N2CCN(Cc3cc(OC)ccc3OC)CC2)cc1,-1.5,-0.11
Cc1csc(-c2nc(-c3ccc(C(F)(F)F)cc3)no2)c1,-0.91,x
CC(C)NC(=O)c1ccc2c(=O)n(C(C)C)c3n[nH]c(=O)n3c2c1,-1.3,-0.72
CCCC1=NN2C(=N)/C(=C/c3ccc(OCCOc4cccc(OC)c4)c(OC)c3)C(=O)N=C2S1,-4.2,x
O=C(CCS(=O)(=O)c1ccc2c(c1)NC(=O)CS2)Nc1ccccc1F,x,0.48
Cn1c(=O)oc2cc(S(=O)(=O)N3CC=C(c4ccccc4)CC3)ccc21,-0.42,x
Cc1cccc(-n2nnc(-c3nc(-c4ccc(Cl)cc4)no3)c2C)c1,x,1
COc1ccc(-c2n[nH]c3c2C(c2ccccn2)N(C)C3=O)cc1 (configuration not stated),0.96,1.2
CC(=O)N1c2ccc(S(=O)(=O)NCC3CCC(C(=O)NC4CCCC4)CC3)cc2CC1C (configuration not stated),x,0.77
Cc1c(NS(=O)(=O)c2ccc3c(c2)CCC(=O)N3)c(=O)n(-c2ccccc2)n1C,0.87,x
CN(C(=O)Cc1noc2ccccc12)c1ccc(F)cc1,-1.5,1.3
O=S(=O)(NCc1ccccc1)c1ccc2c(c1)OCCO2,-0.02,-0.02
N#Cc1c(-c2ccccc2F)cc(-c2cccnc2)nc1N,-0.91,-0.01
Cc1nn2c(C(F)(F)F)cc(-c3ccccn3)nc2c1-c1ccccc1,-1.7,-0.63

# Look-ups from above:
# `COc1ccc(-c2n[nH]c3c2C(c2ccccn2)N(C)C3=O)cc1` (configuration not stated) in HIV TAR-Tat reads 1.2
# `CC(=O)N1c2ccc(S(=O)(=O)NCC3CCC(C(=O)NC4CCCC4)CC3)cc2CC1C` (configuration not stated) in HIV TAR-Tat reads 0.77
# `N#Cc1c(-c2ccccc2F)cc(-c2cccnc2)nc1N` in CDC25B-CDK2 inh reads -0.91

# Continuation.
SMILES,CDC25B-CDK2 inh,HIV TAR-Tat
COc1ccc(N2CCN(C(=O)c3cc(=O)c4cc(Cl)ccc4o3)CC2)cc1,-2.4,1.6
Cc1cccc(C2Nc3c(C(=O)O)cccc3C3C4CCC(C4)C23)c1 (configuration not stated),-0.82,2
COC(=O)c1cc(NS(=O)(=O)c2c(C)cc(C)cc2C)cc(C(=O)OC)c1,-0.6,x
O=C1c2ccncc2C(=O)N1Cc1csc2ccccc12,-1.6,x
O=C(COc1ccccc1)Nc1c(C(=O)N2CCC(N3CCCCC3)CC2)oc2ccccc12,x,0.35
CCCCCn1c(CN2CCCCC2CC)nc2c1c(=O)n(C)c(=O)n2C (configuration not stated),-0.93,-0.59
COc1cccc(-c2cc(C(F)(F)F)nc(-n3cc(Br)cn3)n2)c1,-2.8,x
Cc1ccc(C)c(Nc2nn3nnnc3c3ccccc23)c1,x,-5.9
c1ccc(-c2csc(-c3nc(-c4cccs4)cs3)n2)cc1,x,0.23
COc1ccc(OC)c(NC(=O)CCC2=NS(=O)(=O)c3ccccc3N2)c1,x,1.4
COc1ccc(OC)c(NC(=O)CCS(=O)(=O)c2ccc3c(c2)NC(=O)CO3)c1,x,0.42
Cc1cc(-c2ccc(S(=O)(=O)Nc3ccc(-c4ccno4)cc3)s2)n[nH]1,x,-0.33
Cc1ccc2oc3c(c(=O)c2c1)C(c1cccc(O)c1)N(Cc1ccccc1)C3=O (configuration not stated),-0.34,1.8
COc1cccc(Nc2nc3ccccc3nc2-n2nc(C)cc2C)c1,-1.5,1.6
Cc1c(Cl)cccc1-n1c(-c2cccnc2)n[nH]c1=S,-0.2,x
C=CCN[C@H]1CS(=O)(=O)C[C@@H]1S(=O)(=O)c1cccs1,-2,-1.3
CCN(CC)c1ccc2nnc(CCC(=O)Nc3ccc(F)cc3F)n2n1,x,0.7
O=C(O)CCNC(=S)Nc1cc(Cl)ccc1Cl,-2.2,x
Cc1sc2nc(SCC(=O)N3CCOCC3)[nH]c(=O)c2c1C,-1.5,0.69
Cn1ncc2c(Nc3cccc(Cl)c3)nc(N3CCOCC3)nc21,x,0.91
CCOc1ccc(C2NCCc3c2[nH]c2ccccc32)cc1 (configuration not stated),-2.2,-1.9
c1ccc(-c2nc3cccnc3nc2N2CCCC2)cc1,-0.51,0.7
CCCCN(C)C(=O)CN1C(=O)c2cccnc2Oc2ccc(Cl)cc21,x,0.14
O=C(CSc1ccccc1)OCc1cc(=O)n2nc(C3CCCCC3)sc2n1,x,1.2
CN(Cc1ccco1)C(=O)c1cc2n(n1)CC(C)(C(=O)NC1CCCCC1)N(C)C2=O (configuration not stated),x,1.5
CC(=O)N1c2ccccc2CC1C(=O)Nc1cccc2c1CCCC2 (configuration not stated),x,1.1
O=c1cc(CSc2ccc(Cl)cc2)nc2sc3c(n12)CCCC3,-1.8,-0.91
CCC1CN(S(=O)(=O)c2cc(-c3cc(C)no3)ccc2OC)c2cc(C)ccc2O1 (configuration not stated),x,-0.23
Cc1cccn2c(=O)c(C(=O)NC(C)C)c(O)nc12,-0.02,0.28
O=C(O)c1ccc(CN2C(=O)C3CCCN3C(=O)c3ccccc32)cc1 (configuration not stated),0.26,1.3
CCCCCCn1c(CN2CCN(c3ccccc3F)CC2)nc2c1c(=O)n(C)c(=O)n2C,0.21,0.36
CC(=O)/C=C(\NB(c1ccccc1)c1ccccc1)N1CCOCC1,0.34,x
Cc1ccc(C(CNC(=O)c2cc(-c3cccs3)on2)N2CCN(C)CC2)o1 (configuration not stated),-0.65,-3.5
COCCCNc1nc(Nc2cccc(OC)c2)c2cnn(C)c2n1,x,0.2
O=c1[nH]c2ccc(S(=O)(=O)N3CCN(c4cccc(Cl)c4)CC3)cc2[nH]c1=O,16,20*
c1ccc2c(c1)nc1n2CN(C2CCCCC2)CN1,0.71,0.88
O=C(NNS(=O)(=O)c1ccc(Cl)cc1)c1csc(CS(=O)(=O)Cc2ccco2)n1,0.22,x
Nc1nonc1-c1nc2ccccc2n1Cc1c(F)cccc1Cl,-0.97,0.19
Clc1ccc(-c2nc3ccccc3s2)cc1,-1.1,0.53
CCCCc1nn2c(=O)cc(COC(=O)c3cccc(C)c3)nc2s1,x,-0.1
COC(=O)c1cnn(-c2ccc(F)cc2F)c1/C=N/NC(=S)Nc1ccc(Cl)cc1,-0.97,x
CCC(C(=O)NC(C)c1ccccc1)n1nc(C)c2sc3ccccc3c2c1=O (configuration not stated),-1.3,0.87
O=C(Nc1ccccc1)Nc1ccc(Br)c(C(F)(F)F)c1,0.21,x
O=C(c1noc2ncnc(N3CCCC3)c12)N1CCOCC1,x,-0.34
COc1ccc(Nc2nc(N)nc(N)c2S(=O)(=O)c2ccccc2)cc1,2,0.24
O=C(NC1CCCCC1)c1c(O)nc2ccccn2c1=O,-2.3,-1.1
Cn1ncc(-c2nc(-c3ccc(Cl)cc3)cs2)c1N,-0.49,x
COc1ccc(-n2c(-c3ccco3)n[nH]c2=S)cc1,-1.7,x
O=c1c2cccnc2n(Cc2cccc(F)c2)c(=O)n1Cc1cccs1,-0.5,-0.88
O=C(Nc1ccc2c(c1)OCCO2)C(=O)Nc1ccc2nc3n(c(=O)c2c1)CCCCC3,3,0.68
COc1ccc(-n2nnc(-c3nc(-c4ccccc4F)no3)c2N)cc1OC,x,0.96
Cn1cnc2c(cnn2-c2ccccc2)c1=O,-2.6,x
CC1CN(C(=O)CCC(=O)NCC2CCCO2)c2ccccc2O1 (configuration not stated),-1.7,1
CCC(=O)Nc1nnc(SCc2cc(=O)c3cccc(Cl)c3[nH]2)s1,x,1.2
O=c1c2cc(F)ccc2oc2ccc(F)cc12,-0.82,x
O=C(Nc1ccccc1)C1=C(Nc2ccccc2)c2ccccc2S1(=O)=O,x,0.9
Cn1c2c(c3ccccc31)C(=O)C(Cn1ccnc1)CC2 (configuration not stated),-1.4,x
CC1CCN(C(=O)Cn2cc3c(n2)CCCC3)CC1,-0.47,x
COC(=O)C1=C(C)Nc2nc(SCC(C)C)[nH]c(=O)c2C1c1ccc(F)cc1 (configuration not stated),-1.8,-0.01
COc1nc2c(C)cccc2cc1-c1noc(-c2ccc(C)cc2)n1,0.37,0.78
# The results go on.
SMILES,CDC25B-CDK2 inh,HIV TAR-Tat
Cc1ccc(NC(=O)CSc2nc3c(cc2C#N)CCC3)cc1C,-4.4,1.2
O=C1NC(c2ccccc2F)c2c1n[nH]c2-c1cccs1 (configuration not stated),0.22,-1.3
CCOC(=O)c1cnc2ccc(OC)cc2c1Cl,-0.35,-0.4
COc1cc(C2c3c(n[nH]c3C)C(=O)N2c2ccc(Br)cc2)ccc1O (configuration not stated),x,0.43
CCOC(=O)C(c1ccccc1)C(Nc1ccccc1)c1ccccn1 (configuration not stated),-0.02,x
CCN(CC)S(=O)(=O)c1ccc2c(c1)N(CC(=O)N1CCN(C3CCCCC3)CC1)C(=O)CO2,-1.6,1
O=c1[nH]cncc1-c1nc(-c2ccc(Cl)cc2)no1,-0.66,0.46
CCC(C)Nc1nc(N)c([N+](=O)[O-])c(N2CCN(CC)CC2)n1 (configuration not stated),x,1.1
Cc1ccc(-c2noc(-c3nnn(-c4cc(C)cc(C)c4)c3N)n2)cc1,x,-0.3
CS/C(N)=N/C(=S)Nc1cc(Cl)ccc1C,-0.92,x
C=CCn1c(CC)nc2c(sc3nc4c(cc32)COC(C)(C)C4)c1=O,-3,x
O=C1C2C3c4ccccc4C(C(=O)O)(c4ccccc43)C2C(=O)N1c1ccc(Br)cc1 (configuration not stated),-0.67,0.66
O=C(CSCc1cnn(-c2ccccc2)c1-n1cccc1)N1CCCC1,-1.7,2.2
O=C1NC(=O)C(CC(=O)N(Cc2ccco2)C2(C(=O)NC3CCCCC3)CCCCC2)N1 (configuration not stated),-0.35,x
Cc1cnc(NC(=O)c2nccnc2C(=O)O)c(C)n1,-1.7,x
C#CC1CCCCC1N=Cc1cc(Cl)cc(Cl)c1O (configuration not stated),-1.2,x
O=C(NC1CC1)c1ccc2c(=O)nc3c(-c4cccc(F)c4)n[nH]n3c2c1,x,0.62
Cc1nc(C23CC4CC(CC(C4)C2)C3)[nH]c(=O)c1Cl,-0.3,x
Cc1ccc(S(=O)(=O)c2nnn(-c3cc(F)ccc3F)c2C)cc1C,-0.08,-1.3
CCc1ccc(CN2CCC(N3CCCC(C)C3)CC2)cc1 (configuration not stated),1.5,0.95
CN(C)C(=O)c1ccc2c(c1)C1C3CCC(C3)C1C(c1ccccc1)N2 (configuration not stated),-1.1,x
CCOC(=O)c1cnc2cc(C)nn2c1C,-0.75,0.3
Cc1nn(C(C)C(=O)NC(C)c2ccccc2)c(=O)c2cc3occc3n12 (configuration not stated),-1.3,2.6
CCn1c(SCC(=O)c2c(C)[nH]c3ccccc23)nnc1-c1ccco1,-1.6,0.08
CC(C)NC(=O)CSc1nnc(-c2cccnc2)o1,-1.1,1.7
Cc1onc(-c2c(Cl)cccc2Cl)c1NC(=O)NNc1ccccn1,9.5*,x
c1ccc2c(c1)nc(NC1CCCC1)c1nncn12,-1.1,x
CC(C)NC(=O)N(Cc1cccnc1)Cc1cccs1,-1.4,x
CN1c2ccccc2-c2nc(SCC(=O)Nc3ccc(F)cc3)ncc2S1(=O)=O,x,0.83
Oc1ccc(C2Nc3ccc4ccccc4c3C3C=CCC32)cc1 (configuration not stated),0.99,-11
Cc1ccc(-n2nnc(-c3nc(-c4ccccc4)no3)c2C)cc1C,x,1.3

# Among those listed so far, 2 have a nitro group on carbon.
SMILES,CDC25B-CDK2 inh,HIV TAR-Tat
O=c1[nH]nc(Sc2ncc([N+](=O)[O-])s2)n1-c1ccc2c(c1)OCCO2,1.8,x
CCC(C)Nc1nc(N)c([N+](=O)[O-])c(N2CCN(CC)CC2)n1 (configuration not stated),x,1.1
